Compound activity: PubChem, National Center for Advancing Translational Sciences (NCATS)
Six1-Eya2 blk = blocks human Six1 binding to Eya2; Q15475+O00167; AlphaScreen GST-Six1/His-Eya2 binding, biochemical; hits give low values; control for the full effect not named in the record; activity change, % (no concentration beside the values); 0.56% of 360,000 active; AID 651725; in the data active = activity change below about -65%; inconclusive = about -30% to -65%; inactive = above about -30%; note: % is set by controls: 0 for no effect and ±100 for the full control effect; compound concentration not given in the record
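Compounds are tested against tagged Six1 and Eya2 proteins bridged by glutathione donor and nickel acceptor beads; after a one-hour incubation at 37 °C without light, AlphaScreen emission is recorded.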
TRPML1 ag = agonists of human TRPML1 channel. 0.12% of 410,000 active. TRPML1-expressing cells, Ca2+ dye fluorescence, FDSS; host cell line not named in the record; reference of the full effect not given here. AID 624414. Q9GZU1. activation, % (no concentration beside the values); in the data active = activation above about 50%; inconclusive = about 30% to 50%; inactive = below about 30%; note: 0% is about no effect; the text of the record puts the active cut at 80%
Target sequence (Q9GZU1 whole entry, looked up): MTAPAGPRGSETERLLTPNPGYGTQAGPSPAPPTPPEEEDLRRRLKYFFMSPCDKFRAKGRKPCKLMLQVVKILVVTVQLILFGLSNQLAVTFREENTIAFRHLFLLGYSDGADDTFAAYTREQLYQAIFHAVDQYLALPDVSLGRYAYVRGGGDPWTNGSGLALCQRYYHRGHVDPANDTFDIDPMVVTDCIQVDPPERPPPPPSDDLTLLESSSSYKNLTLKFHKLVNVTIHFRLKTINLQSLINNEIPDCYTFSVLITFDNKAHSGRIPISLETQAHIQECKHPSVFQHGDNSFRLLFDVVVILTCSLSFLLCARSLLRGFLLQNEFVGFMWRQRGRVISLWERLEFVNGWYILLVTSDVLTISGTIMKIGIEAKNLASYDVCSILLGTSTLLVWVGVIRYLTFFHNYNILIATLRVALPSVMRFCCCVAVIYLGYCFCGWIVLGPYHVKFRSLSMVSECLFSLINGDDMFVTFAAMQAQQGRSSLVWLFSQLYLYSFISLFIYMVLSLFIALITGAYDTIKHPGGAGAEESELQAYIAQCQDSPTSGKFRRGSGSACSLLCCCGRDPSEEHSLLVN
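Kinetic FDSS Ca2+ read in Tet-induced TRPML1-DL cells (ABD Ca8 dye plus quencher, 45-90 min RT loading): baseline, then compound, then 110 s agonist window; EC80 agonist 54-4 at 4uM final added afterwards for a 110 s antagonist window.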
D2 potentiator = positive allosteric modulators of human D2 dopamine receptor. DiscoveRx D2 beta-arrestin cells, luminescence, 90 min; 100% = 57 uM dopamine signal. AID 624464. P14416. potentiation, % (concentration not given with the values). 0.23% of 360,000 active; active = potentiation of 50% or more; inconclusive = 30% to 50%; inactive = 30% or less;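 note: compound concentration not given in the record; tested on top of an EC20 dose of dopamine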
Target sequence (P14416 whole entry, looked up): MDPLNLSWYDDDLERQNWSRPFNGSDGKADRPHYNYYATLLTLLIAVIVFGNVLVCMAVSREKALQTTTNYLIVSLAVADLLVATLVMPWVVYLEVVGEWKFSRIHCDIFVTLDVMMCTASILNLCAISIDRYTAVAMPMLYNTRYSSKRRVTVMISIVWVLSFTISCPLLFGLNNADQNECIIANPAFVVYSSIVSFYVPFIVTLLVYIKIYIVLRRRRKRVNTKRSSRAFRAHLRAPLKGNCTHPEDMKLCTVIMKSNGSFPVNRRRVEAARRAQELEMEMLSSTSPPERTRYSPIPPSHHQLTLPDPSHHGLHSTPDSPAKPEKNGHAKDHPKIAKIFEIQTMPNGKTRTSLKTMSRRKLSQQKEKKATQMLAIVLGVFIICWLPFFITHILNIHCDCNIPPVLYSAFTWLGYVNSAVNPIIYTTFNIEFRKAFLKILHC
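PathHunter beta-arrestin assay in DiscoveRx D2 cells. Compounds were added with an EC20 of dopamine (50 nM final) for 90 min at 37 deg C. Luminescence was read 1 h after detection reagent, with 57 uM dopamine as the EC100 control.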
TRPML1 inh = blocks the human TRPML1 channel; Q9GZU1; TRPML1-inducible cells, Ca2+ dye fluorescence, FDSS; hits give low values; inhibition of EC80 agonist-evoked calcium signal; activity change, negative = inhibition, % (test concentration not listed); 0.02% of 390,000 active; AID 624415; in the data active means activity change below about -50%; inconclusive means about -30% to -50%; inactive means above about -30%;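 note: stimulus is agonist 54-4 at its EC80 concentration; % is set by controls: 0 for no effect and ±100 for the full control effect; compound concentration not given in the record; the text of the record puts the active cut at -80%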
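Tet-induced TRPML1-DL cells loaded with Ca8 no-wash calcium dye were read kinetically on FDSS. Compound addition was followed by EC80 agonist 54-4 (4 uM final); inhibition was read over 110 s.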
D2 ag = activates the human D2 dopamine receptor; P14416; DiscoveRx PathHunter D2 beta-arrestin, luminescence, 90 min; 100% = 57 uM dopamine signal; activation, % (concentration not given with the values); 0.084% of 360,000 active; AID 624465; in the data active = activation above about 40%; inconclusive = about 15% to 40%; inactive = below about 15%; note: compound concentration not given in the record; the text of the record calls up to 30% inactive
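DiscoveRx PathHunter D2 beta-arrestin cells (2,100/well) attached overnight, then compound-stimulated 90 min at 37 C in HBSS/10 mM HEPES/0.1% Tween-20 buffer; beta-galactosidase complementation read by luminescence after 1 h at ambient temperature. Dopamine 57 uM final (EC100) as control.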
PINK1 modulator = PINK1 expression modulation; AID 624263; PINK1 immunofluorescence, high-content cytometry, 24 h; 0.2% of 410,000 active; Potency, µM (highest dose often 76.6 µM), for inactives: at the highest dose activation (PINK1 increase), hits mostly activators; active = well fitted activation curve with a large enough effect; inconclusive = small, poorly fitted or top-dose-only effect; inactive = flat fitted curve, though single readings scatter; cell line not stated here;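 note: potency is the fitted concentration of half-maximal effect; % of control where 0% means no effect; nearly all actives have a fitted effect of over 65% in size; a mitochondrial uncoupler was the plate control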
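Readout is PINK1 immunofluorescence, quantified alongside mitochondrial, cell and nuclear markers by laser-scanning microplate cytometry. Cells from a stable line were exposed to compound titrations (5 concentrations) for 24 hours, with CCCP controls.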
Numbers without * were called inactive; ? = inconclusive; . = no result given; & = joins results of further samples; [ ] = remark or other dose.

Preview, 6 compounds:
Every second line gives: Six1-Eya2 blk	TRPML1 inh	D2 potentiator	PINK1 modulator	TRPML1 ag	D2 ag
> CC1CCCCN1C(=O)C(Cc1ccccc1)N1C(=O)C2CCCCC2C1=O (stereo unspecified)
→ -3	-4	-4	1.1%	-0.6	-6.5
> O=C(COc1ccc(Cl)cc1)Nc1cccc(-c2ccc3nncn3n2)c1
→ 8	9	-13	2.0%	-0.8	0.8
> COc1ccc(CCNC(=O)c2ccc3ccccc3n2)cc1
→ 0	-11	2	-0.1%	3.9	5.4
> OC(c1ccccc1)c1nc(/C=C/c2ccccc2)cs1 (stereo unspecified)
→ 3	.	0	5.2%	-1.0	-3.4
> Cc1cccc(NC(=S)Nn2cnnc2)c1C
→ 6	7	-29	1.9%	0.0	-7.0
> N#CC1=C(N)Oc2cc(N)ccc2C1c1cccnc1 (stereo unspecified)
→ -9	26	-14	7.4%	1.1	-0.6

Main list, from the start:
Every second line gives: Six1-Eya2 blk	TRPML1 inh	D2 potentiator	PINK1 modulator	TRPML1 ag	D2 ag
> CC1CCCCN1C(=O)C(Cc1ccccc1)N1C(=O)C2CCCCC2C1=O (stereo unspecified)
→ -3	-4	-4	1.1%	-0.6	-6.5
> O=C(COc1ccc(Cl)cc1)Nc1cccc(-c2ccc3nncn3n2)c1
→ 8	9	-13	2.0%	-0.8	0.8
> COc1ccc(CCNC(=O)c2ccc3ccccc3n2)cc1
→ 0	-11	2	-0.1%	3.9	5.4
> OC(c1ccccc1)c1nc(/C=C/c2ccccc2)cs1 (stereo unspecified)
→ 3	.	0	5.2%	-1.0	-3.4
> Cc1cccc(NC(=S)Nn2cnnc2)c1C
→ 6	7	-29	1.9%	0.0	-7.0
> N#CC1=C(N)Oc2cc(N)ccc2C1c1cccnc1 (stereo unspecified)
→ -9	26	-14	7.4%	1.1	-0.6
> COc1cccc(NC(=O)c2cc(-c3ccco3)nc3ccccc23)c1
→ -23	-15	-2	21%	0.1	-4.5
> COCCCNC(=O)Cc1coc2ccc3ccccc3c12
→ 12	-18	-2	-0.9%	0.0	-3.9
> Clc1ccccc1NCSC1=NCCS1
→ 1	10	-4	-1.3%	2.3	-3.1
> CC(C)CC(=O)NCC(C)NC(=O)CC(C)C (stereo unspecified)
→ 8	-4	-16	0.2%	-0.7	-1.6

(list continues)
Every second line gives: Six1-Eya2 blk	TRPML1 inh	D2 potentiator	PINK1 modulator	TRPML1 ag	D2 ag
> COc1cc(OC)cc(C(=O)NC2CC3CCC(C2)N3C)c1 (stereo unspecified)
→ 4	20	-5	-1.7%	0.2	-6.4
> Cc1ccc(S(=O)(=O)CC(=O)N2CCN(c3cccc(C(F)(F)F)c3)CC2)cc1
→ -2	18	1	-0.6%	1.6	-1.7
> Cc1cccc(N2CCN(C(=O)CCc3c(C)nc4ncnn4c3C)CC2)c1C
→ .	1	.	0.1%	-1.2	.
> CCOC(=O)N1CCN(Cc2nc3cc(NC(=O)c4cccs4)ccc3n2C)CC1
→ -15	9	-7	-0.2%	-0.1	-5.3
> CCC(Oc1ccccc1)C(=O)Nc1cc(Cl)ccc1-n1cncn1 (stereo unspecified)
→ 12	8	1	1.1%	0.1	-1.7
> Cc1cccc(N(C)Cc2nnc(-c3cccc(Br)c3)o2)c1
→ 6	.	9	6.4%	.	-2.3
> CCOC(=O)c1ccc(NC(=O)CSc2nc(-c3cccs3)cc(C(F)(F)F)c2C#N)cc1
→ .	14	.	0.1%&-0.3%	4.4&0.9	.
> Cc1ccc(CNC(=O)CS(=O)Cc2nc(-c3ccccc3F)oc2C)cc1 (stereo unspecified)
→ -3	-14	1	0.0%	-0.7	-1.8
> Cc1ccc(C(=O)Nc2cccc(N(C)S(C)(=O)=O)c2)cc1S(=O)(=O)Nc1ccccc1
→ 12	-6	29	.	1.3	7.8
> Cc1ccc(S(=O)(=O)N(C)c2ccc(C(=O)N3CCc4ccccc4C3)cc2)cc1
→ -2	71	-3	0.5%	1.8	-2.4

Later entries
Every second line gives: Six1-Eya2 blk	TRPML1 inh	D2 potentiator	PINK1 modulator	TRPML1 ag	D2 ag
> N/C(=N\c1nc(CSc2ccc(Cl)cc2)cc(=O)[nH]1)Nc1cccc2ccccc12
→ -14	2	-10	-1.3%	-0.4	-5.5
> COCCSc1ccccc1C(=O)Nc1nnc(COC)s1
→ 0	4	1	0.6%[38.3 µM]	-0.3	-0.5
> C#Cc1ccc(NC(=O)C2(C)CCN2C(=O)c2ccccc2CCc2ccccc2)cc1 (stereo unspecified)
→ 2	.	-14	0.8%	0.2	-6.0
> CSc1ncnc2c1ncn2CCCNCc1cccs1
→ 0	2	0	-0.3%	-0.6	-9.3
> CCc1ccc2c(c1)cc(CN(C(=S)Nc1ccccc1C)C1CC1)c1nnnn12
→ 3	-3	4	3.0%[38.3 µM]	-0.3	-0.7
> COC(=O)c1scc(C)c1N1C(=O)c2ccccc2C1=O
→ 3	20	0	0.9%	2.5	-0.6
> CCOC(=O)C1=C(CC)Nc2ccccc2N=C1NC(=O)c1ccc(C)c(S(=O)(=O)N2CCOCC2)c1
→ -6	9	-4	8.2%	1.6	2.1
> O=C(COc1ccc(Cl)cc1)Nc1ccc(Cl)cn1
→ -1	-16	-18	2.5%	-0.7	-2.4
> COc1cc2ccc(C(C)=NOC(C)=O)cc2cc1OC
→ 0	8	-13	-0.3%	-0.2	-7.5
> Cc1oc2cc(O)ccc2c(=O)c1Oc1ccccc1Br
→ -4	1	2	2.6%	0.1	-3.4

Remaining list, next part:
Every second line gives: Six1-Eya2 blk	TRPML1 inh	D2 potentiator	PINK1 modulator	TRPML1 ag	D2 ag
> O=C1CCN(c2ncccc2[N+](=O)[O-])CC1
→ -2	-10	-5	-0.1%	0.2	-3.3
> COCCN1Cc2cc3cc(C)ccc3nc2SC1=Nc1ccc(OC)cc1
→ -15	-5	-8	0.2%	0.7	-0.3
> CCCn1c(=O)c(C(=O)NCCc2ccc(OC)cc2)c(O)c2ccccc21
→ 1	-15	-1	4.2%	1.2	-4.9
> COC(=O)c1c(O)c2c([nH]c1=O)CCCC2
→ 10	-1	-3	-1.3%	-0.4	0.8
> CC1CCCC(C)N1C(=O)COC(=O)c1cccc(S(=O)(=O)N(C)c2ccccc2)c1 (stereo unspecified)
→ -7	2	-2	1.5%	1.8	3.9
> O=C(N/N=C/C1CC=CCC1)c1ccc(Cl)cc1O (stereo unspecified)
→ -4	8	-16	-0.9%	0.3	-2.5
> COc1ccc(C(=O)OC(C)C(=O)NC2CCCCC2C)cc1S(=O)(=O)N1CCOCC1 (stereo unspecified)
→ 0	-14	-8	0.8%	0.0	-4.2
> COc1ccc(CN2C(=O)c3ccccc3C2=O)cc1C(=O)N(C)CC(=O)Nc1c(C)cccc1C
→ -1	8	2	0.2%	0.2	0.7
> CCOC(=O)C1CCCN(C(=O)c2sc3nc(-c4ccccc4)cn3c2C)C1 (stereo unspecified)
→ -1	-5	-5	10%[38.3 µM]	0.4	1.5
> CCOc1ccc(N(Cc2cc3ccc(C)cc3[nH]c2=O)S(=O)(=O)c2ccccc2)cc1
→ 1	11	-9	6.0%	2.1	-1.2

Other compounds follow.
Every second line gives: Six1-Eya2 blk	TRPML1 inh	D2 potentiator	PINK1 modulator	TRPML1 ag	D2 ag
> O=C(Cn1c(O)c(/C=C2\C=Nc3ccc(Br)cc32)sc1=O)N1CCCC1
→ -7	28	-4	-2.2%	0.4	1.2
> Cc1nc(SCC(=O)NCC2CCCO2)c2c3c(sc2n1)CCCC3 (stereo unspecified)
→ 0	4	-6	0.9%	0.1	-2.3
> Cc1cccc(NC(=O)CSc2nc3ccccc3c(=O)n2C)c1C
→ -2	1	-3	6.5%	0.7	-0.4
> COc1c(Cl)cc(C(=O)NCc2ccco2)cc1Cl
→ 0	6	-2	-1.8%	3.5	1.2
> CC[C@]12c3[nH]c4cc(CCC(=O)N(C)C)ccc4c3CCN1C(=O)[C@@H](CC(=O)NCCC1=CCCCC1)C[C@@H]2C(=O)N1CCN(C(=O)c2ccco2)CC1
→ -4	5	-1	0.3%	-0.7	-1.7
> Cc1ccccc1NS(=O)(=O)c1ccc(C(=O)NCC(c2ccccc2)N(C)C)cc1 (stereo unspecified)
→ 6	-5	-39	0.0%	1.9	-3.0
> CCN1C(=O)N[C@H](c2ccc(Br)cc2)C(C(C)=O)=C1C
→ 7	37	-8	6.5%	-0.2	-6.0
> Cc1nc2ncnn2c(N2CCN(C(=O)c3cccc(F)c3)CC2)c1Cc1ccccc1
→ -1	-3	-8	3.7%[38.3 µM]	0.0	1.0
> NC(=O)C1CCN(C(=O)c2ccc(Cl)c(S(=O)(=O)NCc3ccco3)c2)CC1
→ -2	-4	-2	1.9%	0.2	-1.8
> CCCOCn1cc(F)c(=O)[nH]c1=O
→ 7	6	-8	1.0%	-0.5	-6.2

Carrying on:
Every second line gives: Six1-Eya2 blk	TRPML1 inh	D2 potentiator	PINK1 modulator	TRPML1 ag	D2 ag
> COc1c(C)cc(C(=O)C2CCCN(S(=O)(=O)N(C)C)C2)cc1C (stereo unspecified)
→ -4	-9	-6	-0.4%	0.2	-3.1
> Cc1ccc(OCC(=O)OCC(=O)NC2CCCCCC2)cc1C
→ 10	0	-17	-0.2%	-0.2	-2.6
> Cc1ccc(/C=C(\NC(=O)c2ccccc2)C(=O)OCc2ccccc2)cc1
→ 5	0	-15	-1.7%	0.9	-0.6
> COc1ccccc1C(=O)COC(=O)c1nc(Cl)ccc1Cl
→ 0	12	-1	-2.0%	1.2	-1.5
> COc1cc(/C=N/NC(=O)C(Cc2c[nH]c3ccccc23)NC(=O)OCC(C)C)cc([N+](=O)[O-])c1OCc1ccccc1 (stereo unspecified)
→ 0	-2	-5	-0.5%	3.5	1.3
> Cc1cccc2cc(C3CC(c4ccco4)=NN3S(=O)(=O)c3ccccc3)c(Cl)nc12 (stereo unspecified)
→ -10	0	11	-0.3%	0.7	-4.4
> O=C(NC(Cc1ccccc1)C(=O)O)c1ccccc1 (stereo unspecified)
→ 0	11	-23	-1.5%	0.8	-2.2
> Cc1ccc(/C=C/c2onc(C)c2S(=O)(=O)N2CCC(C(=O)N(CCC(C)C)Cc3ccco3)CC2)cc1
→ .	-3	.	2.3%	1.0	.
> COc1cccc(C2Nc3c(F)cc(Br)cc3C3C=CCC32)c1OC (stereo unspecified)
→ -1	-4	1	?	5.7	-3.3
> Nc1nc(-c2ccc3c(c2)CCO3)cs1
→ 5	10	-9	-0.7%	-0.1	-5.9

(next part)
Every second line gives: Six1-Eya2 blk	TRPML1 inh	D2 potentiator	PINK1 modulator	TRPML1 ag	D2 ag
> COC(=O)CSc1nnc(-c2ccccc2OC)o1
→ 0	0	2	6.0%[38.3 µM]	0.1	-1.0
> COC(=O)Cn1c(C(=O)N2CCCC2)cc2c1C[C@H]1CN(C(=O)c3ccccc3)[C@@](Cc3ccc(F)cc3)(C(=O)OC)[C@@H]21
→ -4	-11	-2	3.9%	2.0	-1.0
> COc1ccc(NC(=O)CCn2cnc3onc(-c4ccc(F)cc4)c3c2=O)cc1OC
→ .	2	.	5.4%	0.7	.
> O=C(CCc1n[nH]c(=O)[nH]c1=O)N/N=C/c1ccco1
→ -23	10	-3	0.5%	0.3	3.2
> Cc1cccc(NC(=O)Nc2cccnc2)c1C
→ 9	-2	-18	-0.4%	0.4	-4.5
